# High-throughput results from PubChem BioAssay.
# ALR inh: blocks human ALR sulfhydryl oxidase activity; P55789; purified ALR, DTT oxidation, H2O2 HRP-luminol luminescence; inhibition, % (test concentration not listed); 290,000 compounds, 3.8% hits;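 active means mean and each replicate at 75% or more; inconclusive means only one of the two met; inactive means neither met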;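 further: stock transfer was 7.5 nL into about 7.5 µL; 0% = neutral wells and 100% = wells with inactivated enzyme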
# Target sequence (P55789 whole entry, looked up): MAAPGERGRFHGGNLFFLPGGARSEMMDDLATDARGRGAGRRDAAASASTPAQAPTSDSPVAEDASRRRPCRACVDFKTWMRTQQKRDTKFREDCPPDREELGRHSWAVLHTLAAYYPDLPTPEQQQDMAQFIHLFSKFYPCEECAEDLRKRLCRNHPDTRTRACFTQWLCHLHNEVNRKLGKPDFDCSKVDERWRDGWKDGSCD
# Beta2AR agonist: human beta-2 adrenergic receptor agonism by FAP; 340,000 compounds, 0.43% hits; P07550; Am2.2-beta2AR cells, FAP receptor internalization, flow cytometry; reference of the scale not given here; response, % (no concentration beside the values);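 active means response above a set limit, near 3 SD of response in nonfluorescent compounds, cut at about 42% in these data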;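 further: stock transfer was 100 nL into about 11 µL; a reference agonist was the positive control; negative values mostly stem from fluorescent compounds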
# Target sequence (P07550 whole entry, looked up): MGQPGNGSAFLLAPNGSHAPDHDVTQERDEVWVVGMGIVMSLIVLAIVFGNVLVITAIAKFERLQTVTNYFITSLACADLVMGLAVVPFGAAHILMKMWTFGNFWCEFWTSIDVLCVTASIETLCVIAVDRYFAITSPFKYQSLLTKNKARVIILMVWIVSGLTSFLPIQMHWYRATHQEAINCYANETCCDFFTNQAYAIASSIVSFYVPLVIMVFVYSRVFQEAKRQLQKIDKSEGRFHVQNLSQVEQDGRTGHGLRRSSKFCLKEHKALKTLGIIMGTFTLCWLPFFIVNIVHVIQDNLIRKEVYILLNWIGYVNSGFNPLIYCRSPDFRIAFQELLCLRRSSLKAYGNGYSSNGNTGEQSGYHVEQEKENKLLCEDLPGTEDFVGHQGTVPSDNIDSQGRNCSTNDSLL
# Calb FLC: C. albicans growth modulation with fluconazole | C. albicans CaCi-2 (fluconazole-resistant clinical isolate) + fluconazole, Alamar Blue growth, 48 h | growth inhibition, % (concentration not given with the values) | 300,000 compounds, 0.57% hits | AID 1979;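 active means most replicates above 75%; inconclusive means exactly half above 75%; inactive means most below 75%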;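 further: all wells also contain fluconazole at 8 µg/ml as a sub-toxic cotreatment; 0% = median of DMSO wells and 100% = median of geldanamycin control wells; wells of about 8 µL received 7.5 nL stock; the first replicate is given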
# RanGTP-Impb inh: disruptors of Ran-importin-beta complex formation – biochemical, FRET, CFP-Ran, YFP-importin-beta, homogeneous, primary screen | 300,000 compounds, 1.1% hits | AID 2216 | inhibition, % (no concentration beside the values) | cell-free CFP-Ran/YFP-importin-beta FRET ratio;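 active means most replicates above 15%; inconclusive means exactly half above 15%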;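 further: 0% = DMSO wells and 100% = Ran loaded with GDP instead of GTP; wells of about 40 µL received 100 nL stock; the first replicate is given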
# LANA-H2A inh: blocks KSHV LANA binding to histone H2A/H2B | Q9QR71 | cell-free LANA-H2A/H2B peptide, fluorescence polarization | inhibition, % (test concentration not listed) | 320,000 compounds, 0.6% hits | AID 2629; in the data active means inhibition mostly above about 10%, no sharp cut-off; inactive means mostly below about 6.7%;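 further: stock transfer was 7.5 nL into about 10 µL; 0% = median of vehicle wells and 100% = median of positive control wells; one replicate is shown; the record names a cut of 25% in any replicate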
# Vif A3G: inhibitors of Vif binding to APOBEC3G peptide, primary screen, biochemical, TR-FRET, GST-Vif 1-94, biotin-A3G peptide, dose response retest (AID 1117319); inhibition, %, or IC50 in µM where a hit was titrated; TR-FRET GST-Vif / biotin-A3G peptide binding; higher % means a stronger effect; test concentration not given here; strong numbers were not always called active; 260,000 compounds, 0.57% hits;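 active means above the screen mean plus three standard deviations and confirmed in dose response; inconclusive means results disagree or hit not tested in dose response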;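 further: Vif residues 1-94 fused to GST binding biotinylated APOBEC3G peptide 110-148; 0% = full assay without inhibitor and 100% = GST in place of GST-Vif; retest series ran down from 100 µM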
# HNF4A DNA FP: change in binding of human HNF4 alpha to DNA. HNF4a-FITC DNA binding, fluorescence polarization, 1 h. activity change, % at 10 µM. 360,000 compounds, 0.3% hits. AID 1224865; in the data active means activity change above about 30%, passing the limit was not always enough;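 further: controls were the assay level and a saturating level of protein; the project sought stronger binding though the title names inhibitors; some compounds called inactive have numbers as strong as hits; positive values seem to mean higher polarization but the record does not say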
# Target sequence (P41235 whole entry, looked up): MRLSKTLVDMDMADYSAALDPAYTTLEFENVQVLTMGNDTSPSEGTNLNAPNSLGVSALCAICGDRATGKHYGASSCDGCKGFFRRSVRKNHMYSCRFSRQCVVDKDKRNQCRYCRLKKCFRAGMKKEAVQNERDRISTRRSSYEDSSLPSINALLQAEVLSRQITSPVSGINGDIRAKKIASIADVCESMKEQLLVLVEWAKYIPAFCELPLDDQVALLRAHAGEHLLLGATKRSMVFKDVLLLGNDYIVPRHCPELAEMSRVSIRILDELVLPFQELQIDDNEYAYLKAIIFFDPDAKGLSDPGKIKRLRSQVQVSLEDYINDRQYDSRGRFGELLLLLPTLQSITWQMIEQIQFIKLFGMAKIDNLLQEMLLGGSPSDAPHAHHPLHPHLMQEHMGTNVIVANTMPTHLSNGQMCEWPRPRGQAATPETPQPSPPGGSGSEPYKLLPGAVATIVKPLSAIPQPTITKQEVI
# An asterisk follows results filed as active; ? = inconclusive; . = no result given; & = joins results of further samples.
entry	Molecule	ALR inh	Calb FLC	Vif A3G	LANA-H2A inh	Beta2AR agonist	HNF4A DNA FP	RanGTP-Impb inh
1	O=C(COc1ccccc1[N+](=O)[O-])NCC1(N2CCCCC2)CCCCC1	-1	.	-3%	-1.3	-5	1.8	.
2	O=C(O)CSc1nnc(-c2ccc(Cl)cc2Cl)n1-c1ccc(Cl)cc1	.	0	.	3.8	3	8.1	-2.9
3	Cc1cc(C(=O)N/N=C/c2ccc(-c3cccc(Br)c3)o2)n[nH]1	-5	-1	-4%	-2.5	20	-0.4	-1.7
4	COc1ccc(/C=C/C(=O)NC(C)(C)C)cc1S(=O)(=O)N1CCOCC1	4	-1	.	-2.0	2	-3.5	5.9
5	O=[N+]([O-])c1ccc(N2CCN(c3nc(-c4ccc(Cl)cc4)cs3)CC2)cc1	-5	3	29%	-3.8	17	0.0	1.0
6	C=CCNC(=O)C(C)N1C(=O)c2ccccc2C1=O (configuration not stated)	.	31	?	-1.7	8	1.5	2.5
7	O=C(NCc1ccccc1)c1ccc(CSc2ccccc2)o1	-8	4	-3%	-2.5	0	0.8	3.3
8	COc1ccc(NS(=O)(=O)c2cccc(C(=O)NNC(=O)NCCCl)c2)cc1	1	-1	11%	7.2	-1	-1.9	2.5
9	CSc1ccccc1OCc1cc(C(=O)NC2CCOC2)no1 (configuration not stated)	-1	1	.	0.0	-2	-0.7	0.1
10	O=C(O)[C@H]1CCCC[C@H]1C(=O)Nc1ccc(S(=O)(=O)N2CCOCC2)cc1	-5	3	.	-5.2	15	0.7	17*
11	CCn1cc(/C=C(\NC(=O)c2ccccc2OC)C(=O)N2CCN(C)CC2)c2ccccc21	19	2	.	4.2	4	0.1	0.4
12	CCOC(=O)C1CCN(C(=O)CCC(=O)NCCc2ccc(Cl)cc2)CC1	-3	6	.	-5.3	12	2.4	3.4
13	Cc1ccc(NC(=O)c2cc(-c3ccc(C)o3)nc3ccccc23)cc1	1	-1	21%	0.4	3	5.2	-2.5
14	CC(/C=N/n1c(-c2ccncc2)n[nH]c1=S)=C\c1ccco1	2	-2	5.1µM*	0.1	0	-20	2.1
15	CCn1c(SCC(=O)N/N=C/C=C/c2ccccc2[N+](=O)[O-])nnc1-c1ccccc1	2	-6	.	-7.9	-4	-0.1	0.9
16	CC(C)Oc1ccc(/C=N/NC(=O)C2CCCN2S(=O)(=O)c2ccc(Cl)cc2)cc1 (configuration not stated)	-10	28	4%	4.0	0	-0.9	-4.2
17	O=S(=O)(Nc1cc(Cl)ccc1-n1cncn1)c1ccc(F)cc1	15	.	.	2.8	6	4.8	.
18	CC1=C(C(N)=O)C(c2ccccc2)n2nc(-c3cccc(C)c3)nc2N1 (configuration not stated)	.	8	25%	-0.5	-2	6.0	-0.9
19	Cc1cc2c(cc1C)C(c1cccc([N+](=O)[O-])c1)CC(=O)N2 (configuration not stated)	42	0	-7%	-0.7	0	0.2	?
20	CC(=O)N1CCN(S(=O)(=O)c2cccc(C(=O)NNC(=O)COc3c(C)cccc3C)c2)CC1	1	.	-12%	4.4	8	-5.7	.
21	Cc1cc(NC(=O)c2ccc3c(c2)OCO3)no1	-4	5	0%	-6.6	-8	1.9	-1.5
22	O=C(N/N=C/c1ccccc1Cl)c1ccncc1	-6	1	.	1.3	-5	-1.8	?
23	CCCn1nc(-c2ccccc2)c2nc3ccccc3nc21	-26	.	-3%	21	.	.	.
24	O=C(CCCN=C1NS(=O)(=O)c2ccccc21)OCC(=O)c1ccc(Br)cc1	-1	-7	.	-4.3	1	-2.1	-4.3
25	CCN1CCN(c2oc(-c3ccc([N+](=O)[O-])cc3)nc2C#N)CC1	-7	-3	-4%	-5.7	1	0.5	5.3
26	CCCCN(C(=O)C1CSC2(C)CCC(=O)N12)c1c(N)n(Cc2ccccc2)c(=O)[nH]c1=O (configuration not stated)	.	.	-8%	.	0	-0.7	.
27	Cc1cc(F)ccc1Oc1cc(NN2CCCCC2)c([N+](=O)[O-])cc1[N+](=O)[O-]	-6	-4	.	-3.4	0	1.0	-2.0
28	Cc1ccc(S(=O)(=O)N2CCN(S(=O)(=O)N3CCCCC3)CC2)cc1	.	16	-1%	-1.7	-1	1.8	?
29	CCN1CCN(C(=S)Nc2ccc(Cl)c(Cl)c2)CC1	3	-1	-3%	3.6	1	3.4	-3.3
30	O=C(Nc1ccccc1C(=O)O)c1cc(S(=O)(=O)N2CCOCC2)c(Br)s1	35	3	.	3.8	8	5.0	0.2
31	COc1ccc(NC2CCCN(C(=O)C3(C)CCCCC3)C2)cc1OC (configuration not stated)	-3	11	8%	0.5	4	4.5	0.8
32	CN(CC(=O)Nc1cccc(F)c1)C(=O)c1sccc1-c1ccccc1	.	.	12%	.	5	1.7	.
33	Cc1cc(C(=O)NCCc2ccccc2)c2cc(F)ccc2n1	-12	14	4%	2.9	-17	1.2	-2.9
34	CCNC(=O)COC(=O)c1sccc1C	-6	-23	-9%	0.6	-5	2.3	.
35	Cc1nn(C)c(Oc2ccccc2)c1CCNC(=O)CCl	12	-7	.	-2.9	-7	-0.9	-1.1
36	O=S1(=O)N=C(Oc2cccc3ccccc23)c2ccccc21	-16	1	8%	-1.2	2	0.7	0.1
37	COc1ccccc1NC(=O)Cn1c(=O)c(N(C)C)c(N)n(C)c1=O	3	-5	-9%	1.1	1	-2.5	3.0
38	CC1(C)OC(C)(C)/C(=C\c2ccc(OCC(N)=O)cc2)C1=O	.	.	-4%	1.3	2	-3.7	.
39	O=[N+]([O-])c1cc2c(cc1CN1CCN(c3ccccc3F)CC1)OCO2	-45	-77	.	5.2	1	2.5	3.7
40	O=c1c(C(c2nnnn2C2CCCCC2)N2CCCCC2)coc2ccc(Cl)cc12 (configuration not stated)	-2	?	3%	-1.8	-9	-0.7	-3.6
41	CC(=O)Nc1ccc(S(=O)(=O)NCC(=O)OCC(=O)N2CCCCCC2)cc1	4	.	0%	0.1	6	4.9	.
42	O=C(CN1C(=O)NC2(CCCC2)C1=O)Nc1nc2ccccc2s1	11	0	-3%	-9.4	1	-1.1	.
43	CCOCCCN(Cc1ccco1)S(=O)(=O)c1csc(C(N)=O)c1	-1	-3	.	-1.4	-5	-6.1	-0.9
44	CCOC(=O)N1CCN(CC(=O)Nc2c(C(=O)OC)[nH]c3cc(C)ccc23)CC1	3	34	-6%	3.0	1	-2.6	-1.3
45	CCOC(=O)c1cnn(-c2ncnc3sc(CC)cc23)c1N	12	5	-3%	-0.2	-5	-3.3	0.2
46	O=C(CC1COc2ccccc2O1)NCc1ccccc1 (configuration not stated)	-1	-19	26%	-0.9	2	0.0	0.4
47	COc1ccc(Nc2cc(C)nc3ccccc23)cc1	5	-21	10%	-0.5	-13	1.4	.
48	CCCCN(c1ccccc1)S(=O)(=O)c1ccc2c(c1)CCN2C(=O)CCC(=O)O	.	-1	26%	4.1	-1	-0.6	-2.5
49	NC(=O)CSc1nnnn1CC(CC(=O)O)c1ccccc1 (configuration not stated)	-9	6	.	2.5	27	2.6	-1.1
50	Cc1ccc(C)c(S(=O)(=O)N2CCCC2CNC(=O)C(=O)NCCc2ccco2)c1 (configuration not stated)	-8	-4	0%	-2.8	-3	2.2	-1.3
51	Cc1cc(C)c(NC(=O)CC(=O)c2ccccc2)c(Cl)c1	16	-10	3%	-4.2	-2	-4.2	4.5
52	CC(C)(CNS(=O)(=O)c1ccc(Cl)cc1)N1CCCCC1	1	-3	9%	-3.0	7	-2.4	7.3
53	CCCCCN(C(=O)CCC(=O)OC(C)C(=O)NC1CCCCC1)c1c(N)n(CCCC)c(=O)[nH]c1=O (configuration not stated)	.	-5	2%	0.7	-4	-0.7	1.3
54	Cn1cc(C(=O)NC2CCCCCCC2)c(=O)c2cc(S(=O)(=O)N3CCCC3)ccc21	-1	20	-5%&-2%	3.9	10	2.7	?
55	CCCSc1nnc(NC(=O)c2ccco2)s1	10	60	.	0.6	-2	-6.9	.
56	O=Cc1cn(CCC(=O)O)nc1-c1cccc2ccccc12	-5	-1	5%	-1.3	7	1.9	-2.8
57	Cc1cc(-c2nc3ccccc3[nH]2)ccc1N	98*	1	3%	-1.0	-17	-6.0	-11
58	CCOC(=O)c1c(C)n(C)c2ccc(OC)c(NC(=O)CN3CCCCC3)c12	.	-11	-6%	3.2	3	0.9	-1.0
59	CC1CCCCN1CCNS(=O)(=O)c1ccc2c(c1)oc(=O)n2C (configuration not stated)	-21	0	12%	-1.8	-4	1.5	7.2
60	COc1cccc(NC(=O)C2CCN(S(=O)(=O)c3ccc4c(c3)NC(=O)C(C)S4)CC2)c1 (configuration not stated)	0	-2	.	-1.5	1	1.0	-1.9

# Carrying on.
entry	Molecule	ALR inh	Calb FLC	Vif A3G	LANA-H2A inh	Beta2AR agonist	HNF4A DNA FP	RanGTP-Impb inh
61	COc1ccc([N+](=O)[O-])cc1NC(=O)c1ccc(CN(c2ccccc2)S(C)(=O)=O)cc1	7	-6	23%	-0.2	5	0.2	0.6
62	Cc1ccc(NC(=O)c2cccs2)cc1NC(=O)c1ccccc1Cl	-15	-10	0%	8.6	-10	-0.8	-1.8
63	COc1cccc(NC(=O)CSc2ccc3nnc(-c4ccccn4)n3n2)c1	-6	-6	.	11	-1	1.5	1.5
64	CN(C)CCN=Cc1c(O)n(Cc2ccc3c(c2)OCO3)c(=O)c2ccccc12	-2	0	-12%	2.4	-13	2.4	-2.0
65	O=c1cc(CSc2nc3ccccc3[nH]2)c2ccccc2[nH]1	91*	6	12%	-1.4	-10	0.2	0.7
66	Cc1ccc(CNC(=O)Cn2ccc3cc(S(=O)(=O)N4CCCCCC4)ccc32)cc1	-4	-7	.	-2.3	11	0.6	0.0
67	COc1ccc(C(=O)OCC#CCSc2nnc(-c3cccc4ccccc34)o2)cc1	-5	.	.	3.3	-4	-3.2	.
68	COc1cccc(CN2c3ccc(Br)cc3C(=O)CS2(=O)=O)c1	-3	.	.	1.9	17	1.5	.
69	CNC(=O)c1ccsc1NC(=O)CCS(=O)(=O)c1ccccc1	70	16	.	5.5	-6	2.2	4.0
70	CC(C)C[C@@H](CO)N1CCN(Cc2ccc(O)cc2)CCC1=O	.	-11	.	-6.5	-2	1.1	-0.6
71	O=C1c2ccc(Oc3ccc([N+](=O)[O-])cc3)cc2C(=O)N1CCCO	2	10	.	5.9	-7	-2.6	0.1
72	CCOc1cc(C(=O)Nc2nnc(CC)s2)ccc1OCC(=O)N1CCOCC1	-11	-29	1%	-1.8	9	2.4	-0.6
73	O=C1OCC2=C1C(c1ccc(Cl)cc1)c1cc3c(cc1O2)OCO3 (configuration not stated)	.	.	-6%	.	-11	3.0	.
74	CC(OC(=O)CC1CC2CCC1C2)C(=O)Nc1ccc(N2CCOCC2)cc1 (configuration not stated)	8	-13	-4%	-4.2	-3	-0.5	-0.3
75	O=C(NCCCN1CCOCC1)c1cccc(S(=O)(=O)Nc2ccccc2Cl)c1	-1	8	-3%	7.0	-13	-0.4	4.0
76	Cc1ccc(C(=O)N2CCN(c3ccccc3O)CC2)cc1S(=O)(=O)N1CCCCC1	98*	11	2%	5.5	-6	-0.8	3.0
77	O=C(O)CSC(C(=O)Nc1ccc(Br)cc1)c1ccc(Cl)cc1 (configuration not stated)	27	2	.	4.7	1	3.2	?
78	O=C(c1ccc(F)cc1)C1CCN(C(=O)c2ccncc2)CC1	-1	9	-4%	-1.5	19	-0.8	3.2
79	O=S(=O)(NCc1ccc2c(c1)OCO2)c1ccc2c(c1)oc1ccccc12	-2	-17	-3%	-3.0	-7	-5.3	5.0
80	CC1CCN(C(=O)COC(=O)CNC(=O)C23CC4CC(CC(C4)C2)C3)CC1	-4	0	.	4.6	-1	2.3	-3.0
81	C[C@H](CO)N1C[C@H](C)[C@@H](CN(C)C(=O)Nc2ccccc2)Oc2ccc(NC(=O)CCN3CCOCC3)cc2C1=O	-1	.	0%	.	-1	5.8	.
